Screens deposited in PubChem by National Center for Advancing Translational Sciences (NCATS).
StopGo reporter: FMDV 2A StopGo reporter, luciferase signal | human cells with a luciferase reporter of 2A StopGo recoding; control for the full effect not named in the record | Potency, µM (top dose mostly 57.9 µM), without a hit: at the highest dose signal change, negative = less light | 410,000 compounds, 1.2% hits | AID 1159524; active = well fitted falling curve with a large enough effect; inconclusive = small, poorly fitted or top-dose-only effect; inactive = no such curve, though single readings can be large or run the other way; tested in HEK293T cells; note: nearly all actives have a fitted effect of over 45% in size; luciferase light after 4 h
RE007 growth inh: less growth of the S. pombe RE007 Vpr strain. S. pombe RE007 Vpr strain, BacTiter-Glo ATP luminescence, 24 h; control for the full effect not named in the record. Potency, µM (highest dose often 92.2 µM), inactives show at the highest dose activity change, negative = less growth. 360,000 compounds, 0.21% hits. AID 651644; active = well fitted falling curve with a large enough effect; inconclusive = small, poorly fitted or top-dose-only effect; inactive = no such curve, though single readings can be large or run the other way;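 note: nearly all actives have a fitted effect of over 50% in size; the assay follows cell death caused by Vpr and the record does not say whether a fall means rescue or toxicity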
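Fission yeast RE007 carrying one integrated HIV-1 vpr copy, seeded at OD 0.01 in PMG+AL medium with 23 nL pinned compound. Grown 24 h at 30 degrees; viability read by BacTiter-Glo luminescence after 5 min.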
The depositor's hits bear a star; ? = inconclusive; [ ] = dose if it differs, or a comment. % is set by controls: 0 for no effect and ±100 for the full control effect; potency is the fitted concentration of half-maximal effect. This is a subset; count on the stated rates, not on these rows.

Start of the listing, in advance:
The line under a structure holds: StopGo reporter	RE007 growth inh
- C=C1CCN([C@@H](Cc2ccccc2)C(=O)NC2CCN(Cc3ccccc3)CC2)S(=O)(=O)c2ccccc21
 : 0%	1%
- Cc1c(C(=O)NCc2ccccc2C(F)(F)F)sc(=O)n1Cc1ccc2ccccc2c1
 : -5%	1%[18.4 µM]
- CCCNC(=O)C1(C)CCCN(Cc2ccccc2C#N)C1 (configuration not stated)
 : -7%	12%[18.4 µM]
- Cc1ccnc2nc(C(=O)OCC(=O)N(C)C3CCCCC3)nn12
 : -25%	4%
- Cc1ccc(Cc2c(-c3cccc(Cl)c3)nc3ccc(Br)cn23)cc1
 : 29%	-27%
- N#CCc1cccnc1Sc1ccc(Cl)cc1
 : -1%	0%

The whole of this part, previewed entries included:
The line under a structure holds: StopGo reporter	RE007 growth inh
- C=C1CCN([C@@H](Cc2ccccc2)C(=O)NC2CCN(Cc3ccccc3)CC2)S(=O)(=O)c2ccccc21
 : 0%	1%
- Cc1c(C(=O)NCc2ccccc2C(F)(F)F)sc(=O)n1Cc1ccc2ccccc2c1
 : -5%	1%[18.4 µM]
- CCCNC(=O)C1(C)CCCN(Cc2ccccc2C#N)C1 (configuration not stated)
 : -7%	12%[18.4 µM]
- Cc1ccnc2nc(C(=O)OCC(=O)N(C)C3CCCCC3)nn12
 : -25%	4%
- Cc1ccc(Cc2c(-c3cccc(Cl)c3)nc3ccc(Br)cn23)cc1
 : 29%	-27%
- N#CCc1cccnc1Sc1ccc(Cl)cc1
 : -1%	0%
- COc1ccc(C(c2nnnn2-c2c(C)cccc2C)N2CCN(C/C=C/c3ccccc3)CC2)cc1 (configuration not stated)
 : 20%	1%
- CN(C)C(=O)CSc1nnc(-c2ccco2)n1-c1ccccc1
 : 2%	7%
- O=C(NCc1cccnc1)c1cc(C2CCCN(S(=O)(=O)c3cccs3)C2)on1 (configuration not stated)
 : -11%	-1%
- OC(c1ccc(F)cc1)c1nc(-c2ccccc2)cs1 (configuration not stated)
 : 48%[activator]	5%[18.4 µM]
- CCCNC(=O)C1(C)CCN(C(=O)/C=C/c2ccccc2)C1 (configuration not stated)
 : -7%	7%[18.4 µM]
- CCCCN1C(=O)C(CC(=O)NCc2ccco2)CC(C(=O)N(C)C)=C1C (configuration not stated)
 : -3%	?
- CC(=O)Nc1cc(-c2cccc(N)c2)cn2c(-c3ccc(C(C)=O)cc3)cnc12
 : -6%	-10%[18.4 µM]
- O=C(Nc1cccc(C(=O)O)c1)/C(=C/c1ccccc1)NC(=O)c1cccc(Br)c1
 : -10%	-3%
- CCC(=O)N1CCC(C)(C(=O)NCc2ccc(F)cc2)C1 (configuration not stated)
 : -5%	6%[18.4 µM]
- COc1ccccc1Cc1c(-c2ccc(Cl)cc2)nc2c(C)cc(Br)cn12
 : ?	-2%
- CCCCNC(=O)C1(C)CCCCN1Cc1ccccc1-c1ccccc1 (configuration not stated)
 : -31%	-12%[18.4 µM]
- c1ccc2c(c1)[IH]c1ccccc1-2
 : ?	?
- CC1(C(=O)NS(=O)(=O)C2CC2)CCN(C(=O)c2ccc3ccccc3n2)C1 (configuration not stated)
 : -7%	-4%[18.4 µM]
- CN1c2ccccc2SC2C(c3ccccc3)=NOC21 (configuration not stated)
 : -9%	-15%[18.4 µM]
- COC(=O)c1ccc2nc(-c3ccc(F)cc3)c(Cc3ccccc3)n2c1
 : 9%	-25%
- Cc1cccc(CN2CCN(C3CN(Cc4cn(Cc5cccc(C(F)(F)F)c5)nn4)S(=O)(=O)C3)CC2)c1 (configuration not stated)
 : ?	-11%
- COc1ccccc1N(C)S(=O)(=O)c1ccc(C(=O)Nc2cccc(S(=O)(=O)N3CCOCC3)c2)cc1
 : 25µM*	9%
- CC(C)(C)S(=O)N1Cc2cc(C(=O)NCCCN3CCOCC3)nc(-c3cccc(-c4cc5ccccc5o4)c3)c2[C@@H]1CCO (some centres not stated)
 : 0%	-23%
- CC(C)CCNC(=O)C1(C)CCN1Cc1ccc2ccccc2c1 (configuration not stated)
 : -21%	-8%[18.4 µM]
- O=c1c2ccccc2oc2cc(C#CC3(O)CCCCC3)ccc12
 : 11µM*	-8%
- O=C1[C@H]2[C@@H]3CCN1CCC[C@@H]2C=C[C@@H]3c1ccc(Br)cc1
 : ?	-1%
- C[C@@H]1CN([C@@H](C)CO)S(=O)(=O)c2ccc(/C=C/c3ccccc3)cc2O[C@@H]1CN(C)Cc1ccc(C(=O)O)cc1
 : -15%	47%
- O=c1c2ccccc2nnn1-c1ccccc1[N+](=O)[O-]
 : 5%	-12%
- CC(C)(C)OC(=O)Nc1ccccc1-n1nnnc1C(C(=O)c1ccc(F)cc1)N1CCOCC1 (configuration not stated)
 : -4%	-13%
- CCCCCCn1c(=O)n2n(c1=O)[C@@H]1CN(S(=O)(=O)c3ccc(C)cc3)C[C@]1(O)[C@@H](OC(=O)Nc1c(C)noc1C)C2
 : ?	11%
- COC(=O)[C@@]1(Sc2ccc(C)cc2)CC(=O)N(C(=O)CCc2ccccc2)[C@@H]1c1ccccc1
 : -19%	1%
- CN1C[C@@H]2[C@@H]3C(=O)N(Cc4ccccc4)C(=O)[C@@H]3[C@](Cc3ccccc3)(C1=O)N2C(=O)c1ccc(C(F)(F)F)cc1
 : -21%	4%
- CCOC1=C2CN(S(=O)(=O)c3ccc(C)cc3)C(c3ccc(C)cc3)CC2N(S(=O)(=O)c2ccc(C)cc2)C(c2ccccc2)C1 (configuration not stated)
 : -17%	0%
- Cc1cccc(NC(=O)c2ccc(OCc3c(C)noc3C)cc2)n1
 : ?	-12%
- N#Cc1ccc(-c2nc3ccc(Cl)cn3c2Cc2cccc(Cl)c2)cc1
 : -3%	7%
- CN(CC(=O)Nc1ccc(Cl)c(C(F)(F)F)c1)C(=O)c1ccc(S(=O)(=O)N2CCOCC2)cc1
 : -21%	-10%
- COc1ccc(OC)c(S(=O)(=O)NC(=O)C2(C)CCN2C(=O)Cc2ccccc2Cl)c1 (configuration not stated)
 : -1%	-3%
- CCCCC[C@@H](C)N1C[C@H](COCc2ccccc2)Oc2cc(N3CCC[C@H]3C(N)=O)ccc2S1(=O)=O
 : -12%	2%
- CCOC(=O)c1ccn(S(=O)(=O)c2ccc(C)cc2)c1-c1ccccc1
 : ?	3%
- OC(c1ccc(F)cc1)c1ncc(-c2ccc(Oc3ccccc3)cc2)[nH]1 (configuration not stated)
 : 23%	-2%[18.4 µM]
- CN(C)C(=O)c1cccc(-c2ccc3nncn3c2)c1
 : 0%	5%[18.4 µM]
- Cc1ccccc1-c1cc2nc(NCCN3CCNC3=O)n(C)c(=O)c2s1
 : -5%	31%
- CCOCCC(=O)Nc1ccc2c(c1)c(=O)n(C)n2-c1ccc2ccccc2c1
 : 4%	11%
- NS(=O)(=O)c1ccc(NC(=O)CN(C(=O)C(F)(F)F)C2CCCC2)cc1
 : -9%	16%
- O=C(NCCc1ccccc1C(F)(F)F)c1cc(COc2ccccc2)on1
 : -11%	-11%
- c1ccc(N=Nc2ccc(C3=NCCO3)cc2)cc1
 : -42%	-15%
- Cc1cc2c(Nc3ccccc3O)ncnc2s1
 : -8%	-14%
- CCc1nc2c(OCC(=O)C(C)(C)C)cccn2c1N(C=O)Cc1ccccc1
 : -8%	-5%[18.4 µM]
- O=C1[C@@H]2[C@H](C(=O)N1CC(O)COCc1ccccc1)C1C=C[C@H]2C1 (some centres not stated)
 : -9%	4%
- C/C(=N/NS(=O)(=O)c1ccc(Br)cc1)c1cccc(NC(=O)C2CC2)c1
 : 13%	18%
- CC(O)(c1cccc(F)c1)c1nc(-c2ccc3c(c2)OCO3)cs1 (configuration not stated)
 : -19%	?
- N#Cc1ccc(C(C(=O)NCc2ccccc2)n2c(=O)c(-c3ccco3)nc3ccccc32)cc1 (configuration not stated)
 : 6%	-4%
- CC(=O)Nc1cc(-c2cccc(C(=O)NCCN(C)C)c2)cn2c(-c3ccc(F)c(Cl)c3)cnc12
 : -20%	-22%[18.4 µM]
- COC(=O)c1c(-c2ccsc2)oc2ccc(-c3cc(OC)c(OC)c(OC)c3)cc12
 : -24%	-4%
- CCOc1ccc(Br)cc1S(=O)(=O)Nc1cccc(S(=O)(=O)N2CCOCC2)c1
 : 46%[activator]	-4%
- COC(=O)c1ccc([C@H](NC(=O)c2ccco2)[C@]2(C)C[C@H]2C2CCCCC2)cc1
 : -26%	-12%
- CC1Oc2ccc(C#N)cc2N(Cc2ccccc2OC(F)(F)F)C1=O (configuration not stated)
 : -26%	-2%
- COc1ccc(-c2csc(C(C)(NC(C)=O)c3ccccc3)n2)cc1 (configuration not stated)
 : -23%	2%
- CC1(C(=O)Nc2cccc(C#N)c2)CCN1C(=O)Cc1ccc(-c2ccccc2)cc1 (configuration not stated)
 : 25µM*	4%

Next structures:
The line under a structure holds: StopGo reporter	RE007 growth inh
- CN(C)C1CCc2[nH]c3c(F)cc(F)cc3c2C1 (configuration not stated)
 : -9%	9%
- CC(=O)CSc1nc2nccnc2[nH]1
 : -21%	-4%
- CN1C(=O)[C@H]2[C@@H](c3ccc(C(F)(F)F)cc3)N[C@]3(CCCN(Cc4ccc(Cl)cc4)C3=O)[C@H]2C1=O
 : ?	30%
- C[C@H](CO)N1C[C@H](C)[C@@H](CN(C)Cc2ccccc2F)Oc2ncc(Br)cc2C1=O
 : 43%[activator]	7%
- COc1cc(N2CCC(O)CC2)ccc1Nc1nnc(Cl)c(Nc2ccccc2S(C)(=O)=O)n1
 : 20µM*	-19%
- COC(=O)C1=CN(c2ccc(N3CCOCC3)cc2)C(N)=C(C#N)C1c1ccc(-c2ccccc2)cc1 (configuration not stated)
 : -22%	6%
- COC(=O)[C@]12CCCCC=C1N(CCc1ccc(OC)c(OC)c1)C(=O)[C@H](CC(=O)N1CCC(c3ccccc3)CC1)C2
 : -20%	0%
- COc1cccc(-c2oc3c(c2C(=O)OCCN2CCCCC2)C(O)CCC3)c1 (configuration not stated)
 : 16%	-14%
- NC(Cc1ccc(C(F)(F)F)cc1)c1csc(Nc2cnccn2)n1 (configuration not stated)
 : 30%[activator]	13%
- CCc1ccccc1NC(=O)CNC(=O)CCC(=O)c1cc(C)sc1C
 : -10%	-4%
- O=C(CC[C@H]1O[C@@H](n2ccc(=O)[nH]c2=O)[C@H](O)[C@@H]1O)N[C@H](Cc1ccccc1)C(=O)NCc1ccc2c(c1)OCO2
 : -17%	2%
- O=c1c(-c2ccccc2)nc2ccccc2n1C(c1ccccn1)c1nc2ccccc2[nH]1 (configuration not stated)
 : 30%[activator]	-16%
- COc1cccc(C(O)c2nc(-c3cccc(NC(C)=O)c3)cs2)c1 (configuration not stated)
 : -15%	-12%
- Cc1cccnc1C(NC(=O)C1CCN(CCCc2ccccc2)CC1)c1ccc(F)cc1 (configuration not stated)
 : -19%	-17%
- COC(=O)[C@@]12C[C@@H](CC(=O)NCCCCc3ccccc3)C(=O)N(Cc3ccco3)C1=CCC(C)(C)C2
 : -15%	?
- CCC(C(=O)NC1CCCC1)n1c(-c2cc3ccccc3[nH]2)nc2ccccc21 (configuration not stated)
 : 7%	-1%
- COc1cc(OC)cc(C2=Cc3ccccc3C(CC(C)=O)N2c2ccc(-c3cncnc3)cc2)c1 (configuration not stated)
 : 0%	-6%
- CCCC(=O)Nc1ccc(S(=O)(=O)N2CCc3ccccc32)cc1
 : -12%	-1%
- O=C(COC(=O)/C=C/c1cccc(Br)c1)Nc1ccc(Cl)cn1
 : -22%	-4%
- Fc1ccc(-c2nc3ccc(Br)cn3c2Cc2ccsc2)cc1
 : -9%	-2%
- COc1ccc(C(=O)NCC(C)NC(=O)c2ccc(OC)cc2)cc1 (configuration not stated)
 : -11%	2%
- CCOC(=O)C1(C)CCCN1C(=O)c1cccs1 (configuration not stated)
 : -3%	16%
- CC(C)NC(=O)C1(C)CSCC(=O)N1Cc1cccc(C(F)(F)F)c1 (configuration not stated)
 : -8%	0%
- CC(=O)NCCNc1nc(NC(C)C)nc2ccsc12
 : -24%	-13%
- Cc1sc(NC(=O)C2CC(=O)N(Cc3ccco3)C2)nc1-c1ccccc1 (configuration not stated)
 : -21%	2%
- COc1cccc2cc(-c3ccccc3)oc12
 : 56%[activator]	-9%
- Fc1cccc(Cl)c1C1SCc2nc3ccccc3n21 (configuration not stated)
 : ?	12%[18.4 µM]
- c1ccc(SC23CC4CC(CC(C4)C2)C3)nc1
 : ?	8%
- Cc1ccc(S(=O)(=O)N(C)c2ccc(C(=O)NC3CCCCC3)cc2)cc1
 : -23%	4%
- CNc1ncnc2c1ncn2[C@H]1CN(C2CCCC2)C[C@@H](CO)O1
 : -4%	2%
- Cc1ccc(CC2(C)C(=O)Nc3ccc(OC(F)(F)F)cc32)cc1 (configuration not stated)
 : -23%	?
- O=C(Nc1cccc(Br)c1)Oc1cccc2cccnc12
 : -15%	?
- CCOc1ccc(Cl)cc1-c1cc(C(=O)NCCOC)[nH]n1
 : -17%	-14%
- C=CCNC(=O)c1ccsc1N
 : -6%	-12%
- CC(C)(C)c1ccc(CC(=O)N2CCC2(C)C(=O)Nc2cccc3c2CCCC3)cc1 (configuration not stated)
 : -19%	-1%[18.4 µM]
- N#Cc1cccc(-c2csc(C(O)c3ccco3)n2)c1 (configuration not stated)
 : -2%	36%
- CCCCCCn1cc(CN2CC(N(C)CC)CS2(=O)=O)nn1 (configuration not stated)
 : -24%	2%
